ClpP mod: qHTS Assay for Activators of ClpP. ATP-dependent Clp protease proteolytic subunit (Bacillus subtilis (strain 168)), P80244. purified B. subtilis ClpP, FRET peptide cleavage, 20 min. Potency, µM (highest dose often 57.5 µM), inactives show top-dose activity change, negative = active. 340,000 tested, 1.9% active. AID 651965, 2013; active = well fitted falling curve with a large enough effect; inconclusive = small, poorly fitted or top-dose-only effect; inactive = no such curve, though single readings can be large or run the other way; further: potency means the concentration at half of the fitted maximal effect; the source files actives as falling curves though it sought activators and does not explain the sign; nearly all actives have a fitted effect of over 65% in size; many hits overshoot -100%
Target sequence (P80244 whole entry, looked up): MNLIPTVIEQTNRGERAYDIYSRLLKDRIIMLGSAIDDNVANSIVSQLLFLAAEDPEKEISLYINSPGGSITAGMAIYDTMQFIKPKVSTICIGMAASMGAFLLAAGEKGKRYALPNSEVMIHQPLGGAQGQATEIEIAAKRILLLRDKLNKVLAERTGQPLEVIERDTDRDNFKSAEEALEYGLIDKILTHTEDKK
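Buffer: 100 mM Tris/HCl pH8, 100 mM KCl, 0.05% low protease BSA, 2.5% glycerol, 0.01% Tween-20. ClpP 10 microg/mL final; 20 min RT; delta FRET normalized to ADEP and DMSO controls.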
Menin-MLL FL inh: displaces fluorescein MLL peptide from human menin; 290,000 tested, under 10 active; FP activity change, % at 61.4 µM; Fluorescence polarization, fluorescein-MLL peptide displacement from menin; inconclusive = falling polarisation curve, or a change in total fluorescence; inactive = total fluorescence flat and polarisation flat or rising; no compound was filed as active; the % refers to the polarisation; negative = inhibition;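 further: % of control where 0% means no effect; inhibitors lower the polarisation; unlabelled MLL peptide was the positive control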
gsp antagonist: antagonizes gsp, the McCune-Albright syndrome mutation; gsp-mutant cells, cAMP HTRF, 30 min; control for the full effect not named in the record; AID 624288; 340,000 tested, 0.4% active; Potency, µM (doses to about 76.9 µM), for the others: at the top dose activity change, negative = inhibition, hits mostly inhibitors; active = falling curve of any shape with a large fitted effect; inconclusive = falling curve, mostly with a smaller effect; inactive = flat or rising curve; cell line not stated here;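 further: intracellular cAMP measured with PDE inhibitor Ro 20-1724 present during compound exposure; potency means the concentration at half of the fitted maximal effect; on the % scale 0 is the no-effect control and ±100 the full control effect; nearly all actives have a fitted effect of over 65% in size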
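Cells, 2000/well, grown 16–24 h in DMEM 10% FBS with 0.5 mg/ml G418, then compounds plus […] (300 uM addition stock), 30 min at 37C. cAMP read by HTRF (cAMP-d2 and anti-cAMP antibody-K in lysis buffer) after 30 min RT.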
TRPML1 blocker: blocks the human TRPML1 channel; TRPML1-inducible cells, Ca2+ dye fluorescence, FDSS; active compounds read low; inhibition of EC80 agonist-evoked calcium signal; Q9GZU1; 390,000 tested, 0.02% active; activity change, negative = inhibition, % (test concentration not listed); in the data active means activity change below about -50%; inconclusive means about -30% to -50%; inactive means above about -30%;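 further: stimulus is agonist 54-4 at its EC80 concentration; on the % scale 0 is the no-effect control and ±100 the full control effect; compound concentration not given in the record; the text of the record puts the active cut at -80%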
Target sequence (Q9GZU1 whole entry, looked up): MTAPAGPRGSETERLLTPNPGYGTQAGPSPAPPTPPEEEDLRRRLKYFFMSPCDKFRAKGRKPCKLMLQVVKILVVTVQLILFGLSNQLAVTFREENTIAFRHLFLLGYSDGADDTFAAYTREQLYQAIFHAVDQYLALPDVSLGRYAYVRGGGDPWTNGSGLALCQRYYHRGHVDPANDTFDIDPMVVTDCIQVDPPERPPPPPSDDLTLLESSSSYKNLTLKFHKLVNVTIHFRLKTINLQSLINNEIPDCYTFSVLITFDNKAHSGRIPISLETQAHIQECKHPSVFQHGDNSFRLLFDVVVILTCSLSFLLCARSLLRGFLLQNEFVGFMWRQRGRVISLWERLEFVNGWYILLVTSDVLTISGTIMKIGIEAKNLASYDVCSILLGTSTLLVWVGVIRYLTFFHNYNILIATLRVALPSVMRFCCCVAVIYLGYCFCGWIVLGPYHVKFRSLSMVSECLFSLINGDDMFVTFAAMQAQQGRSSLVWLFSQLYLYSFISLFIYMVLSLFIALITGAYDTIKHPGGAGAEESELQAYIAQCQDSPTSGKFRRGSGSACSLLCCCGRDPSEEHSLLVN
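TRPML1-DL cells, Tet-induced overnight (~16 h, 37 °C) at 1,500 cells/well, were loaded with Ca8 no-wash dye plus quencher for 45-90 min at room temperature. Compounds were pinned during FDSS kinetic reading; agonist 54-4 at EC80 (4 uM final) then added.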
gsp agonist: gsp mutant agonism | gsp mutant cells, cAMP HTRF, 30 min; control for the full effect not named in the record | Potency, µM (highest dose often 76.9 µM), without a hit: at the top dose activation (cAMP increase), most hits filed as activators | 340,000 tested, 0.13% active | AID 624287; active = well fitted activation curve with a large enough effect; inconclusive = small, poorly fitted or top-dose-only effect, or another doubt; inactive = no such curve, though single readings can be large or run the other way; cell line not stated here;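 further: phosphodiesterase inhibitor Ro 20-1724 added with compounds to block cAMP breakdown; potency means the concentration at half of the fitted maximal effect; nearly all actives have a fitted effect of over 60% in size; about a fifth of the inactives were tested at one dose only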
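Cells in DMEM/10% FBS with G418 were pretreated with compounds in DMSO plus […] (300 uM stock) for 30 min at 37C. cAMP was measured by HTRF (cAMP-d2 plus anti-cAMP antibody-K) after 30 min at room temperature.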
TRPML1 ag: activates the human TRPML1 channel; AID 624414; activation, % (no concentration beside the values); TRPML1-expressing cells, Ca2+ dye fluorescence, FDSS; host cell line not named in the record; reference of the full effect not given here; 410,000 tested, 0.12% active; in the data active = activation above about 50%; inconclusive = about 30% to 50%; inactive = below about 30%; further: 0% is about no effect; the text of the record puts the active cut at 80%
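TRPML1-DL cells, Tet-induced overnight (~16 h, 37 degrees C), loaded 45-90 min at room temperature with Ca8 no-wash calcium dye plus quencher. FDSS fluorescence: 10 s baseline, compound pin-transfer, 110 s agonist read, then EC80 54-4 (4uM final) and 110 s antagonist read.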
Starred values were filed as active, the others as inactive; ? = inconclusive; / = not tested or not shown; & = joins results of further samples; [ ] = remark or other dose. This is a random part of the collection, and some 2.1% of all compounds hit somewhere here.

Order of results: ClpP mod | Menin-MLL FL inh | gsp antagonist | TRPML1 blocker | gsp agonist | TRPML1 ag
> COc1ccc(-n2c(SCC(=O)NCc3ccc(Cl)cc3)nc3ccsc3c2=O)cc1
    -4.4% | / | / | 8 | / | 5.0
> CC(=O)c1ccc(Oc2cc(C)nc(-n3nc(C)cc3C)n2)cc1
    -0.5% | 0.6 | 10% | 9 | 29% | 0.2
> CN(N=C(c1ccccc1)c1ccccc1)c1ccccc1
    / | / | -1% | -15 | ? | -0.1
> O=C1CC(N2CCOCC2)C(=O)N1c1ccccc1Cl (stereo unspecified)
    -1.0% | 4.7 | 4% | 8 | 8% | -0.4
> COc1ccccc1NS(=O)(=O)c1cccc(NC(=O)c2nc3nc(C)cc(C)n3n2)c1
    -1.6% | -0.4 | -9% | -26 | 11% | 1.3
> COc1ccc(N(CC(=O)NCCc2cccc(C)c2)S(=O)(=O)c2c(C)noc2C)cc1
    -0.7%&-3.2% | / | -13% | 18&9 | 0% | 1.6&-1.2
> Cc1cc(C)n2nc(C(=O)Nc3nccs3)nc2n1
    -3.0% | -0.5 | 11% | 16 | 21% | 2.2
> O=[N+]([O-])c1ccc(/C=C/c2ccncc2)cc1
    0.0% | 7.5 | -3% | 10 | 2% | -0.2
> S=C(Nc1ccc(Cl)cc1)NC1CC2CCC(C1)N2Cc1ccccc1 (stereo unspecified)
    / | -3.2 | -10% | 5 | 11%[15.4 µM] | 3.2
> CN(C)c1ccc(NC(=O)CN2CCN(CC(=O)Nc3ccc(F)cc3)CC2)cc1
    -3.0% | 2.6 | -15% | 5 | -25% | -0.5
> Cc1ccc(C(=O)NCc2ccccc2)cc1Br
    0.1% | 0.0 | -13% | 7 | -30% | -0.4
> COc1ccc(NC(=O)CSc2nnnn2C2CC2)cc1S(=O)(=O)N1CCOCC1
    0.1% | / | -2% | -6 | -37%[inhibitor] | 0.1
> CS/C(=N\S(=O)(=O)c1cccs1)NC(=O)CSc1nc2ccccc2s1
    -3.1% | 4.2 | -6%&-6% | ? | 13%&-25% | -1.2&0.6
> COC(=O)c1ccc(Cl)c(NC(=O)CN2CCN(Cc3ccccc3)CC2)c1
    -1.0% | 2.1 | 1% | 11 | -1% | 0.2
> COc1ccc(/C=C2\N=C(C)OC2=O)cc1OC
    3.2% | 8.4 | -19% | / | 29% | /
> COc1ccc(S(=O)(=O)N2CCCCC2c2cc(C(=O)NC(C)C)no2)cc1 (stereo unspecified)
    0.2% | / | / | 23 | / | -0.9
> O=C(CN1CCCCC1)Nc1ccc(NC(=O)c2ccccc2Cl)cc1Cl
    -2.0% | 1.6 | -1% | -3 | -3% | 2.1
> CCN(C(=O)CSc1ncnc2sc(C)c(C)c12)C1CCS(=O)(=O)C1 (stereo unspecified)
    / | -0.3 | -9% | -9 | 17%[15.4 µM] | 1.0
> O=C(CCCC(=O)OCC(F)(F)C(F)F)Nc1nccs1
    -0.6% | 3.0 | 3% | -4 | -7% | 0.2
> O=C(CCc1nnc(Cc2ccc(-c3ccccc3)cc2)o1)NCCc1ccccn1
    / | -2.3 | -10% | -10 | -3% | -0.4

(list continues)
Order of results: ClpP mod | Menin-MLL FL inh | gsp antagonist | TRPML1 blocker | gsp agonist | TRPML1 ag
> COc1cc(NC(=O)N2CCC(CN3CCc4ccccc4C3)CC2)cc(OC)c1
    -2.1% | / | / | 21 | / | 1.6
> CC1Cc2ccccc2N1C(=O)CN1CCN(S(=O)(=O)c2ccc3c(c2)OCCCO3)CC1 (stereo unspecified)
    -0.7% | / | / | 10 | -64%[inhibitor] | -0.1
> O=C(NCc1cccs1)C1CCCN1C(=O)NC1CCCCC1 (stereo unspecified)
    0.2% | 2.7 | 13% | 17 | 0% | 0.7
> CCOc1ccccc1C(=O)NCC(=O)NCC1CCCCC1
    / | -2.5 | 5% | 38 | 0%[15.4 µM] | 0.3
> O=C(CSc1nccn1Cc1ccccc1)Nc1nccs1
    0.8% | 1.4 | 4% | 9 | 24% | -0.5
> COc1ccc(C(=O)NNC(=O)Cc2ccc(Cl)cc2)cc1
    -0.5% | -3.8 | 5% | 0 | 20% | 1.3
> O=C1/C(=C/c2ccc(N3CCOCC3)o2)SC(=Nc2ccccc2)N1CCc1c[nH]c2ccccc12
    1.3% | ? | 8% | -5 | -11% | 8.9
> O=C(c1cc(-c2ccccc2O)on1)N1CCCCC1
    0.2% | / | / | -5 | / | 0.8
> COc1ccc2cc(C3(C)NC(=O)N(CC(=O)NCc4ccco4)C3=O)ccc2c1 (stereo unspecified)
    -2.9% | -0.4 | ? | 9 | -6% | -1.4
> COc1cc(C(=O)N2CCN(C(=O)CC(C)C)CC2)cc(OC)c1OC
    -1.0% | -1.3 | -1% | -1 | -6% | 0.4
> CC(=O)Nc1ccc(S(=O)(=O)N[C@H](C(=O)O)C(C)C)cc1
    2.0% | -2.2 | 6% | 1 | 11% | -0.3
> COc1ccc(N2CCN(Cc3nc(-c4ccc(C)cc4)no3)CC2)cc1
    -0.3% | / | / | 0 | / | -0.1
> C=CCn1c(SCC(=O)NC2CCCCC2)nnc1C1CCCCC1
    -5.1% | 2.3 | 8% | 33 | -19% | -0.6
> CN(C)C(=O)NC(Nc1cccc([N+](=O)[O-])c1)C(Cl)(Cl)Cl (stereo unspecified)
    -1.1% | -2.9 | 4% | 3 | 1% | 1.2
> CN(C)S(=O)(=O)N(CC(=O)N1CCN(Cc2ccccc2)CC1)c1ccccc1
    1.5% | -1.9 | 3% | -16 | ? | 0.6
> CCc1ccc(OCc2nnc(SCc3ccc(C(=O)O)cc3)o2)cc1
    / | 4.8 | -13% | 4 | -5%[15.4 µM] | -0.1
> CCOc1ccc(CCNC(=O)c2ccc(N3CCCC3=O)cc2)cc1OCC
    -0.4% | -5.1 | 6% | 1 | -20% | 2.4
> CC1CCCN(C(=O)Cn2c(=O)n(CC3CCC(C(=O)NC(C)C)CC3)c(=O)c3sccc32)C1 (stereo unspecified)
    1.5% | / | / | -9 | / | -0.1
> C=CCn1cc(C(=O)NCCCOC)c(=O)c2cc(S(=O)(=O)N(CC)CC)ccc21
    -6.4% | -3.7 | -12% | -7 | -2% | -0.2
> CC(=O)N1CCC2(CC1)CC(=O)c1cc(Cl)ccc1O2
    3.4% | / | 4% | 7 | / | -0.2

Carrying on.
Order of results: ClpP mod | Menin-MLL FL inh | gsp antagonist | TRPML1 blocker | gsp agonist | TRPML1 ag
> COc1ccc(OC)c(/C=N/NC(=O)c2cc(-c3ccc(C)o3)nc3ccccc23)c1
    164% | 3.8 | 0% | 39 | -12% | -0.3
> Cc1cc(C)cc(OCCCCn2cncn2)c1
    / | -0.1 | 9% | -15 | -38%[inhibitor] | 0.4
> COc1ccc(CNC(=O)c2cc(C)nn2-c2ccccc2)cc1
    -3.0% | -1.5 | -1% | / | -10% | /
> Cc1cc(CNC(=O)COc2ccc(C)c(C)c2)c2ccccc2n1
    / | -4.0 | -4% | 6 | -2% | 0.0
> CN(C(=O)Nc1cn(C)c(=O)c2ccccc12)c1ccccc1
    4.4% | / | / | -3 | / | 0.0
> c1cnc2c(c1)ncc1cscc12
    -22% | 6.2 | 5% | -8 | -55%[inhibitor] | 0.6
> CCOC(=O)CC(=O)CSC1=C(C#N)C(c2ccccc2OC)CC(=O)N1 (stereo unspecified)
    -9.9% | 2.1 | 6% | -15 | -8% | 0.0
> COc1ccccc1-n1c(C)nnc1SCC(N)=O
    -1.5% | 2.3 | 17% | 3 | -15% | 0.1
> COCCCn1c(=N)c(C(=O)NCC2CCCO2)cc2c(=O)n3ccccc3nc21 (stereo unspecified)
    -6.8% | -1.6 | 11% | -16 | ? | 0.9
> CSc1cccc(NC(=O)CNC(=O)C2CCCCC2)c1
    0.2% | / | -5% | 31 | 47% | 2.3
> CCc1ccc(NS(=O)(=O)c2ccc(OC)c3ncccc23)cc1
    -2.6% | -0.5 | 0% | -9 | 7% | -0.9
> CCCS(=O)(=O)N1CCN(c2ccccn2)CC1
    ? | 0.1 | -16% | 4 | 1% | -1.0
> CCC(C)(C)C1CCC2(CC1)NC(=O)N(CC(=O)NCCc1ccc(OC)c(OC)c1)C2=O (stereo unspecified)
    -3.8% | / | -1% | 6 | -19% | -0.6
> Cc1ccn2c(Nc3ccccc3C)c(-c3ccccn3)nc2c1
    -0.9%&-2.4% | -5.1 | -1% | 6 | ? | 2.7
> CNC(=O)c1ccc(Nc2nnc(-c3ccc(C)c(S(N)(=O)=O)c3)c3ccccc23)cc1
    -1.4% | 8.0 | 9% | 10 | 14% | 0.9
> COC(=O)c1ccc(CNC(=O)C(C)N=C2NS(=O)(=O)c3ccccc32)cc1 (stereo unspecified)
    1.2% | / | 14% | 7 | -7%[15.4 µM] | 0.1
> CCCn1c(NC(=O)CCNC(=O)c2ccccc2Cl)nc2ccccc21
    0.3% | / | -10% | -1 | 1% | -0.3
> O=C(NC1CCCCC1)C1CC(=O)N(c2ccccc2)C1 (stereo unspecified)
    / | / | 4% | 6 | -5% | -0.1
> C/C(=N/NC(=O)c1cc(C(C)C)[nH]n1)c1cccs1
    -0.4% | -0.3 | 2% | 3 | ? | 0.8
> CCOc1cc(N2CCOCC2)c(OCC)cc1NC(=O)CN1C(=O)NC(C)(C2CC2)C1=O (stereo unspecified)
    0.2% | 2.2 | -23% | -20 | 16% | -0.2

More structures:
Order of results: ClpP mod | Menin-MLL FL inh | gsp antagonist | TRPML1 blocker | gsp agonist | TRPML1 ag
> N#C/C(=C/c1ccc(-c2ccc(S(N)(=O)=O)cc2)o1)c1nc2ccccc2s1
    1.0% | ? | -6% | 3 | 11% | 64*
> CCN1C(=O)c2cccc3c(S(=O)(=O)Nc4ccccc4)ccc1c23
    -2.2% | -1.2 | ? | 13 | 8% | 1.9
> COc1ccc2[nH]c(=O)c(C(c3nnnn3CC3CCCO3)N3CCCCC3)cc2c1 (stereo unspecified)
    / | 0.1 | / | 3 | -6%[15.4 µM] | 1.3
> O=C(COc1ncnc2sccc12)NC1CCS(=O)(=O)C1 (stereo unspecified)
    / | 0.0 | 6% | 2 | -1%[15.4 µM] | -0.4
> CN(C)CCCN(C(=O)c1ccc2c(c1)OCCO2)c1nc2cc3c(cc2s1)OCO3
    -2.1% | / | 9% | 1 | -2%[15.4 µM] | 0.7
> Cc1ccc(NC2=CC(=O)CC(C)(C)C2)c(N)c1
    -7.1% | -0.7 | -5%[15.4 µM] | -19 | -32%[inhibitor] | 1.3
> O=C(CSCc1nc2cccnc2n1C1CCCCC1)NCc1cccc(Cl)c1
    -3.5% | / | / | 12 | / | 1.8
> COc1ccc(Oc2nc(C)cc(C)c2C#N)cc1
    -0.7% | -0.8 | -7% | 14 | 24% | 0.3

Screening data: PubChem, National Center for Advancing Translational Sciences (NCATS)
